Screening results from PubChem BioAssay.
TRPML1 agonist – activates the human TRPML1 channel; TRPML1-expressing cells, Ca2+ dye fluorescence, FDSS; host cell line not named in the record; reference of the full effect not given here; actives 0.12% (n = 410,000); AID 624414; activation, % (no concentration beside the values); Q9GZU1; in the data active = activation above about 50%; inconclusive = about 30% to 50%; inactive = below about 30%; note: 0% is about no effect; the text of the record puts the active cut at 80%
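In this qHTS format, compounds were pin-transferred onto Ca8-dye-loaded TRPML1-DL cells induced with Tet overnight, and intracellular Ca2+ fluorescence was recorded kinetically for 110 s after a 10 s baseline. A subsequent 4uM final 54-4 (EC80) addition followed by a second 110 s read served as the antagonist phase.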
PINK1 expr mod – modulators of PINK1 expression | PINK1 immunofluorescence, high-content cytometry, 24 h | Potency, µM (highest dose often 76.6 µM), inactives show top-dose activation (PINK1 increase), most hits filed as activators | actives 0.2% (n = 410,000) | AID 624263; active = well fitted activation curve with a large enough effect; inconclusive = small, poorly fitted or top-dose-only effect; inactive = flat fitted curve, though single readings scatter; cell line not stated here;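 note: potency is the fitted concentration of half-maximal effect; % of control where 0% means no effect; nearly all actives have a fitted effect of over 65% in size; a mitochondrial uncoupler was the plate control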
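A stable cell line was treated with compounds at 5 concentrations for 24 hours, with CCCP as control. PINK1 levels and mitochondrial localization were measured by immunofluorescence with mitochondrial, cell and nuclear markers after fixation, read by laser-scanning cytometry.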
D2 ag – activates the human D2 dopamine receptor. P14416. DiscoveRx PathHunter D2 beta-arrestin, luminescence, 90 min; 100% = 57 uM dopamine signal. activation, % (test concentration not listed). actives 0.084% (n = 360,000). AID 624465; in the data active = activation above about 40%; inconclusive = about 15% to 40%; inactive = below about 15%; note: compound concentration not given in the record; the text of the record calls up to 30% inactive
Target sequence (P14416 whole entry, looked up): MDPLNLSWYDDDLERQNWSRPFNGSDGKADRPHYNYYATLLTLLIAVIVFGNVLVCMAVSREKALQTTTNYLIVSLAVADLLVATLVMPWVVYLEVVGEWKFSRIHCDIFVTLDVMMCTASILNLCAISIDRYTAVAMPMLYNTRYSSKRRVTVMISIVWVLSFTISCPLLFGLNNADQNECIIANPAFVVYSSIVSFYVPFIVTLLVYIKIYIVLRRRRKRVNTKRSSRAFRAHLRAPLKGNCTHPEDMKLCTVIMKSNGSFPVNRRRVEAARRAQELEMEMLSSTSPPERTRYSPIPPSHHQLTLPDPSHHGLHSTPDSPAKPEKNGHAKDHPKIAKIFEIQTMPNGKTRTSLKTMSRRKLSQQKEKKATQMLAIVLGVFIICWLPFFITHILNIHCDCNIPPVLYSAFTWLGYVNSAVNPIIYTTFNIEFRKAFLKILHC
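DiscoveRx PathHunter D2 beta-arrestin cells (2,100/well) attached overnight, then compound-stimulated 90 min at 37 C in HBSS/10 mM HEPES/0.1% Tween-20 buffer; beta-galactosidase complementation read by luminescence after 1 h at ambient temperature. Dopamine 57 uM final (EC100) as control.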
CtBP-E1A blk – blocks the CtBP interaction with E1A | AlphaScreen GST-E1A/His-CtBP binding, 1536-well; stronger effect = lower value; control for the full effect not named in the record | activity change, % (concentration not given with the values) | actives 0.49% (n = 340,000) | AID 651724; in the data active means activity change below about -65%; inconclusive means about -30% to -65%; inactive means above about -30%; note: % is set by controls: 0 for no effect and ±100 for the full control effect
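Homogeneous bead-based format: GST-tagged E1A captured on glutathione donor beads, His-tagged CtBP on nickel acceptor beads; compounds precede bead addition by 2 h at 37 °C.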
Six1-Eya2 inh – Six1/Eya2 interaction inhibition; AID 651725; actives 0.56% (n = 360,000); AlphaScreen GST-Six1/His-Eya2 binding, biochemical; stronger effect = lower value; control for the full effect not named in the record; activity change, % (no concentration beside the values); in the data active = activity change below about -65%; inconclusive = about -30% to -65%; inactive = above about -30%; note: % is set by controls: 0 for no effect and ±100 for the full control effect; compound concentration not given in the record
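Compounds are tested against tagged Six1 and Eya2 proteins bridged by glutathione donor and nickel acceptor beads; after a one-hour incubation at 37 °C without light, AlphaScreen emission is recorded.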
TRPML1 blocker – inhibitors of human TRPML1 channel; activity change, negative = inhibition, % (no concentration beside the values); TRPML1-inducible cells, Ca2+ dye fluorescence, FDSS; stronger effect = lower value; inhibition of EC80 agonist-evoked calcium signal; actives 0.02% (n = 390,000); Q9GZU1; AID 624415; in the data active means activity change below about -50%; inconclusive means about -30% to -50%; inactive means above about -30%;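 note: stimulus is agonist 54-4 at its EC80 concentration; % is set by controls: 0 for no effect and ±100 for the full control effect; compound concentration not given in the record; the text of the record puts the active cut at -80%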
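Calcium fluorescence in TRPML1-DL cells induced overnight with Tet: a 110 s read after compound pin addition, then a 110 s antagonist read after challenge with 54-4 at 4 uM final (EC80).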
An asterisk follows results filed as active; ? = inconclusive; · = no result given.

Molecule	PINK1 expr mod	D2 ag	TRPML1 agonist	CtBP-E1A blk	TRPML1 blocker	Six1-Eya2 inh
CCCn1c(=O)c2c(nc3n2CCN3c2ccc(C)cc2)n(C)c1=O	-0.2%	·	-0.9	·	17	·
CCN(CC(=O)Nc1ccc2c(c1)OCO2)S(=O)(=O)c1ccccc1	2.9%	-0.6	1.1	1	2	-6
O=C(OCCC1Oc2cccnc2NC1=O)c1ccc(Cl)cc1 (stereo not drawn)	4.2%	-13	2.1	-5	-6	5
O=C(COC(=O)/C=C/c1cccs1)Nc1ccc(Cl)cc1F	?	-2.1	0.6	13	-1	6
O=C(CCCN1C(=O)S/C(=C\C=C\c2ccccc2)C1=O)Nc1ccc(O)cc1	1.1%	11	3.1	-4	14	1
N/C(COc1ncn(-c2ccccc2)n1)=N\S(=O)(=O)c1ccc(Cl)cc1Cl	0.3%	-1.7	-1.0	0	-6	8
CCN(CC(=O)NCc1cccs1)C(=O)c1cccc(S(=O)(=O)N(C)C)c1	4.0%	-2.1	-0.4	1	41	2
Cc1ccc(S(=O)(=O)N2CCC(C(=O)NNC(=O)c3ccccc3O)CC2)cc1	9.9%	-0.2	-1.0	-12	2	-15
CCC(=O)N1CCc2cc(CNS(=O)(=O)c3c(C)cc(C)cc3C)ccc21	0.1%	·	1.7	·	6	·
CCN1CCN(c2ccc(S(=O)(=O)N3CCCCC3)cc2NC(=O)Cc2ccc(OC)cc2)CC1	-0.1%	-4.8	-0.3	-18	-11	-4
Cc1c(-c2ccccc2)c(-c2ccc(OCCN(C)C)cc2)n2ccccc12	-2.0%	7.8	-0.3	12	-4	-3
CCN=C(Nc1ccc(Cl)cc1)c1cccnc1	1.5%	-4.2	0.6	7	-12	5
O=C(Nc1nnc(-c2ccc3c(c2)OCCO3)o1)c1ccc(Cc2ccccc2)cc1	5.7%	-1.1	-0.7	5	-5	-3
O=C(COC(=O)c1cc(S(=O)(=O)N2CCOCC2)ccc1Cl)c1ccc[nH]1	2.5%	-0.3	-1.0	10	28	-20
O=C1CC(c2ccco2)Cc2nc(Nc3nc(-c4ccccc4)c4ccccc4n3)ncc21 (stereo not drawn)	9.4%	-3.0	-0.5	12	3	9
CCN(CC)CCN(C)Cc1ccc(Br)cc1	·	-0.1	-0.6	2	-10	5
CC(C)CCNC(=O)c1ccc(NC(=O)C2=CSCCO2)cc1	1.4%	-4.0	-0.1	·	21	-8
C/C(=N\NC(=O)CCCC(=O)O)c1c(-c2ccccc2)c2cc(Cl)ccc2[nH]c1=O	-0.5%	-1.1	0.0	1	-6	8
O=C1C(=O)N(CCO)C(c2ccc(Br)cc2)/C1=C(\O)c1ccccc1 (stereo not drawn)	-0.8%	-0.4	0.6	-22	41	8
COC(=O)c1ccc(CSc2nnc(NC(=O)C3CCCO3)s2)cc1 (stereo not drawn)	-0.4%	2.9	-0.4	-3	-15	14
O=C(c1ccc(Br)cc1)N1CCCc2ccccc21	1.8%	3.6	2.0	3	13	9
CCN(C)C1CN(Cc2cn(Cc3cccc(C(F)(F)F)c3)nn2)S(=O)(=O)C1 (stereo not drawn)	-1.2%	·	-0.9	1	·	3
Cc1ccc(C2SCC(C(=O)O)N2C(=O)c2ccc(F)cc2)cc1 (stereo not drawn)	1.7%	-2.0	1.3	4	0	3
C(=NOCCc1ccccc1)c1ccccn1	2.8%	-4.5	1.5	12	-4	1
CCOc1ccc(NC(=O)c2oc3ccccc3c2NC(=O)c2c(F)cccc2F)cc1	6.7%	·	-0.2	·	-6	·
Cc1ccc(Cn2c(=O)oc3ccccc32)cc1	1.9%	-8.7	·	-7	·	-13
CCOc1ccc(S(=O)(=O)NNC(=S)Nc2ccc(Br)cc2)cc1	4.3%	-1.3	-0.2	5	-8	0
O=C(CCc1ccccc1)Nc1ccc(NC(=O)C2CC2)nc1	-1.3%	5.3	-0.9	-3	-2	-5
Cc1ccccc1CS(=O)(=O)Cc1ccc(C(=O)NC2CCCC2)o1	-0.3%	-2.8	-0.7	1	7	3
Cc1ccc(S(=O)(=O)N2C[C@H]3C(=O)C[C@@H](c4ccc(Cl)cc4)N(S(=O)(=O)c4ccccc4C)[C@H]3C[C@H]2c2ccccc2)cc1	2.7%	-9.4	1.0	3	5	-4
CCn1c(CNc2ccc(F)cc2)nnc1SCC#N	4.1%	2.3	0.5	1	18	3
Nc1nc(Cl)cc(NCCc2ccc(O)cc2)n1	1.4%	-1.1	0.2	-13	3	-15
O=C(c1ccc2ccccc2c1)C1CCCN(C(=O)CCn2cnnn2)C1 (stereo not drawn)	0.7%	-7.6	-0.6	6	-5	11
CSc1ccccc1OCc1cc(C(=O)N(C)CCn2nc(C)cc2C)no1	2.0%	0.5	0.8	-11	20	-2
CN1CCN(C(=O)/C=C\C(=O)O)CC1	1.5%	6.9	0.5	-4	-3	6
CN1CCN(C2=Cc3ccccc3Sc3cc(F)ccc32)CC1	4.9%	-0.6	1.9	-24	-7	-28
CCOC(=O)C1CCCN(C(=O)COc2ccccc2O)C1 (stereo not drawn)	0.3%	-1.7	-0.5	-2	4	0
CCCS(=O)(=O)N1CCCC(C(=O)NCCc2ccccc2)C1 (stereo not drawn)	0.1%	2.0	0.9	7	-17	-1
CCOC(=O)c1c(C)sc2c1N(C(=O)CN(CC)CC)c1cc(Cl)ccc1S2	?	-2.4	1.4	-12	54	-12
O=[N+]([O-])c1cc(C(F)(F)F)cc([N+](=O)[O-])c1NN=C1CCCCC1	1.4%	12	-0.1	?	10	?
CCC(C)NC(=O)c1c(-c2cc(Cl)c(OC)c(Cl)c2)noc1C (stereo not drawn)	6.2%	-6.1	-0.4	1	-4	7
CCN(CC)S(=O)(=O)c1ccc(N2CCCC2)c(NC(=O)c2ccncc2)c1	-0.4%	-0.2	-0.8	·	6	-1
Cc1cccc(NC(=O)C(Cc2ccccc2)N2Cc3ccccc3C2=O)c1C (stereo not drawn)	?	·	1.3	·	21	·
COc1cccc(OCC(=O)Nc2nnc3n2CCS3)c1	-3.3%	·	-0.1	·	-1	·
CCn1c(SC)nc2c(c1=O)SC(C)C2 (stereo not drawn)	·	-2.2	1.5	8	4	0
Cn1c(=O)c(C#N)c(-c2ccc(F)cc2)c2cc(C(=O)c3cc(Cl)cc(Cl)c3O)cnc21	25µM*	-3.4	1.8	?	7	-5
Cc1cccc(NC(=O)N(Cc2cc3cc(C)ccc3[nH]c2=O)CC2COCCO2)c1 (stereo not drawn)	0.1%	-2.1	-0.2	-17	-10	3
CCOc1ccc(-c2ccc3nnc(SCC(=O)NCC4CCCO4)n3n2)cc1 (stereo not drawn)	0.6%	2.7	0.2	3	-19	2
COCCNC(=O)C(=O)N/N=C(\C)CC(=O)Nc1ccc(Cl)cc1Cl	-2.0%	-5.9	-0.4	12	2	-20
COc1ccc(NC(=O)c2ccc3c(c2)S(=O)(=O)N=C2CCCCCN23)cc1S(N)(=O)=O	1.2%	5.6	0.3	0	34	-6

Continuation.
Molecule	PINK1 expr mod	D2 ag	TRPML1 agonist	CtBP-E1A blk	TRPML1 blocker	Six1-Eya2 inh
Cc1ccc(-c2nc(Nc3cccc(C)c3)sc2CC(=O)O)cc1	11%	2.1	0.9	-6	27	17
COc1cc(C=O)cc(Cl)c1OC(=O)N1CCOCC1	1.0%	-0.7	0.9	3	1	-7
CCOc1ccc(/C=N/n2c(C)nc3ccccc3c2=O)cc1	2.3%	-3.7	·	17	·	-19
CC(C)OCCCNC(=O)C1CC(=O)N(CCc2ccc(F)cc2)C1 (stereo not drawn)	2.2%	-0.7	-0.1	4	-1	6
CCOC(=O)c1c(NC(=O)/C=C/c2ccc(OC)cc2)sc2c1CCC(C)C2 (stereo not drawn)	0.5%	·	1.3	·	5	·
O=C(CCCn1cnc([N+](=O)[O-])n1)Nc1cccc2ccccc12	-0.1%	11	1.0	-3	19	6
CCOc1ccc(N2CC(NC(=O)c3ccco3)CC2=O)cc1 (stereo not drawn)	1.2%	·	-0.3	·	-6	·
O=C(c1cccc(S(=O)(=O)N2CCCCC2)c1)N1CCc2ccccc21	6.8%	-2.6	0.7	37	5	19
COCCN(C(=O)CCc1ccccc1OC)c1nnc(-c2cccnc2)s1	1.2%	-2.0	0.8	·	-4	-10
O=C(NCC1CCCCC1)NCC1CCCCC1	-0.5%	-3.0	·	0	·	3
O=C(NCCCn1ccnc1)/C(=C/c1ccc(Cl)cc1)NC(=O)c1ccccc1	1.1%	0.3	0.5	-3	18	-14
CCC(C)NC(=O)Cn1c(=O)n(-c2ccc(Cl)c(Cl)c2)c(=O)c2c(C)c(C(=O)N(CC)CC)sc21 (stereo not drawn)	2.2%	·	2.0	·	18	·
Cc1ccc(-c2c(C#N)c(N)n(-c3ccc(Cl)cc3)c(=O)c2C#N)cc1	6.4%	-3.4	0.1	4	·	-3
CCOC(=O)C(C)(C)Sc1nc2c(cnn2-c2ccc(Cl)cc2)c(=O)[nH]1	1.8%	0.6	1.0	-8	31	-3
FC(F)(F)c1cccc(N2CCN(c3nnnn3-c3ccccc3)CC2)c1	0.4%	1.8	1.8	2	24	2
